# Beta2AR agonist: beta2AR agonists driving receptor internalization, primary screen, cell-based, FAP fluorogen, flow cytometry | Am2.2-beta2AR cells; reference of the scale not given here | hit rate 0.43% among 340,000 | AID 504454, 2011 | response, % (no concentration beside the values) | Beta-2 adrenergic receptor (Homo sapiens), P07550;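 active means response above a set limit, near 3 SD of response in nonfluorescent compounds, cut at about 42% in these data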;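 further: stock transfer was 100 nL into about 11 µL; a reference agonist was the positive control; negative values mostly stem from fluorescent compounds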
# Target sequence (P07550 whole entry, looked up): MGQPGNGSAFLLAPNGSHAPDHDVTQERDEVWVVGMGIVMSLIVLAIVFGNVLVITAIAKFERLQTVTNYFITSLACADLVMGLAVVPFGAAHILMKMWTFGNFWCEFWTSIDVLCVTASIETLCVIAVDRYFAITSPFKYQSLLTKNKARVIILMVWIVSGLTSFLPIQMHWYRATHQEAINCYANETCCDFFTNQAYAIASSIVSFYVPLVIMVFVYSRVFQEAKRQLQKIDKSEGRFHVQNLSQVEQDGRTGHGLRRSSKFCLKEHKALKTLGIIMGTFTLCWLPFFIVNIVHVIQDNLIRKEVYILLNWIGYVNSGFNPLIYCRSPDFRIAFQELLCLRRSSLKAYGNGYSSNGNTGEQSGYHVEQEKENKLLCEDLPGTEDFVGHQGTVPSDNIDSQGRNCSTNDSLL
# T cruzi repl: inhibitors of intracellular T. cruzi growth, primary screen, luminescence, NIH3T3 host cells | T. cruzi beta-gal in NIH3T3, 90 h | inhibition, % (test concentration not listed) | AID 1885, 2009 | hit rate 1.4% among 300,000;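 active means mean inhibition across valid replicates above about 55%, limit read from the data; inconclusive means mean below that limit but half or more replicates reach it; inactive means mean below it, under half of replicates reach it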;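 further: signal also drops with host cell toxicity which is not excluded here; 0% = plate median of DMSO wells and 100% = zero luminescence signal; higher percent means less beta-gal luminescence so fewer parasites; stock transfer was 50 nL into about 50 µL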
# LANA-H2A inh: blockers of LANA interaction with H2A/H2B – biochemical, FP readout, HTS, primary screen; cell-free LANA-H2A/H2B peptide, fluorescence polarization; inhibition, % (concentration not given with the values); hit rate 0.6% among 320,000; in the data active means inhibition mostly above about 10%, no sharp cut-off; inactive means mostly below about 6.7%;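 further: stock transfer was 7.5 nL into about 10 µL; 0% = median of vehicle wells and 100% = median of positive control wells; one replicate is shown; the record names a cut of 25% in any replicate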
# Beta cell apopt: inhibitors of cytokine-induced beta cell apoptosis, primary screen, luminescence | INS-1E cytokine-induced death, ATP luminescence, 48 h; percent of positive-control rescue, neutral wells zero | protection from apoptosis, % (no concentration beside the values) | hit rate 0.8% among 300,000 | AID 435005, 2010;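 active means all replicates at 75% or more, or half of them and the mean; inconclusive means half reach 75% but not the mean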;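 further: 0% = cytokine-treated negative control wells and 100% = positive control rescue; higher means more ATP so stronger rescue from cytokine killing; wells of about 40 µL received 100 nL stock; the first replicate is given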
# RanGTP-Impb inh: inhibitors of RanGTP-importin-beta interaction, primary screen, biochemical, FRET, CFP-Ran, YFP-importin-beta, homogeneous | Ran GTPase (GTP-bound) - importin-beta complex | cell-free CFP-Ran/YFP-importin-beta FRET ratio | inhibition, % (test concentration not listed) | hit rate 1.1% among 300,000 | AID 2216, 2009;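 active means most replicates above 15%; inconclusive means exactly half above 15%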;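 further: 0% = DMSO wells and 100% = Ran loaded with GDP instead of GTP; wells of about 40 µL received 100 nL stock; the first replicate is given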
# UCH37 inh: inhibitors of human UCH37 deubiquitinase, primary screen, biochemical, Ub-AMC cleavage, fluorescence | Ubiquitin carboxyl-terminal hydrolase isozyme L5 (Homo sapiens), Q9Y5K5 | purified proteasome/UCH37 | inhibition, % (no concentration beside the values) | hit rate 0.33% among 330,000 | AID 588478, 2011;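 active means mean of two replicates above 20%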;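 further: 0% = compound-free wells with enzyme and 100% = wells lacking proteasome; stock transfer was 100 nL into about 20 µL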
# Target sequence (Q9Y5K5 whole entry, looked up): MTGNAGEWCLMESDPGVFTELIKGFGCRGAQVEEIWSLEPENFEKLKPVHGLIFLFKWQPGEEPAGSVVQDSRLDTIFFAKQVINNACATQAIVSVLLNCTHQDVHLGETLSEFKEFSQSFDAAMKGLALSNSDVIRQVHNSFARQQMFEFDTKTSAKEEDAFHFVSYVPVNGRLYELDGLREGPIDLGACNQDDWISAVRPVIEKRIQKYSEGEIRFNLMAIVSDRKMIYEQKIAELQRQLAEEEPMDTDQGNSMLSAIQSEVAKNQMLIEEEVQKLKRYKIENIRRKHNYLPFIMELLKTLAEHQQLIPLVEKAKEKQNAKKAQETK
#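 Material: Human UCH37 enzyme supplied as purified proteasome complex | Schedule: 30 min preincubation with enzyme, 25 min cleavage at room temperature | Detection: AMC fluorescence 355/460 nm | Measure: % inhibition of Ub-AMC cleavage fluorescence | Controls: Wells without proteasome as full block, compound-free enzyme plus substrate as uninhibited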
# Calb FLC: C. albicans growth inhibition with fluconazole, primary screen, CaCi-2 strain, Alamar Blue fluorescence; C. albicans CaCi-2 (fluconazole-resistant clinical isolate) + fluconazole, 48 h; growth inhibition, % (test concentration not listed); hit rate 0.57% among 300,000;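 active means most replicates above 75%; inconclusive means exactly half above 75%; inactive means most below 75%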;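 further: all wells also contain fluconazole at 8 µg/ml as a sub-toxic cotreatment; 0% = median of DMSO wells and 100% = median of geldanamycin control wells; wells of about 8 µL received 7.5 nL stock; the first replicate is given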
# Bfl-1 A1 inh: caspase 3/7 activation in MEF A1-2A-BIM cells, primary screen, A1 inhibitor project, cell-based, luminescence, HTS | hit rate 0.066% among 330,000 | caspase activation, % (concentration not given with the values) | Caspase-Glo 3/7 luminescence, 3 h; percent of clofoctol response, vehicle zero | AID 2462, 2010;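 active means over half of replicate activation scores above 10%, or exactly half above 10 with the replicate mean above 10; inconclusive means replicate mean below 10 yet half the replicates above 10; inactive means over half of replicates below 10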;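 further: wells of about 30 µL received 50 nL stock; many hits fall short of the cut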
# The depositor's hits bear a star; ? = inconclusive; · = not tested or not shown; & = joins results of further samples.
SMILES,Beta2AR agonist,T cruzi repl,LANA-H2A inh,Beta cell apopt,RanGTP-Impb inh,UCH37 inh,Calb FLC,Bfl-1 A1 inh
O=c1cc(O)c2sc3nc4c(c(C(F)(F)F)c3c2[nH]1)CCCCC4,2,20,3.2,-4,9.6,-2.8,4,0.9
CC(C)N1CC(C(=O)Nc2ccc(Cl)c(Cl)c2)CC1=O (stereo not given),7,-9,2.6,·,-0.1,5.6,-3,-0.2
Cc1ccc(S(=O)(=O)Nc2nc(C)cc(N/N=C/c3ccc(O)cc3)n2)cc1,-6,-14,-4.2,0,-5.2,·,6,0.7
CC(C)(C)N(Cc1ccccc1)C(=O)CN1C(=O)c2ccccc2S1(=O)=O,-2,·,3.3,-4,·,1.0,·,0.1
CC(=O)N(Cc1cccs1)Cc1cc2ccc(C)c(C)c2nc1Cl,6,10,3.3,4,1.8,2.5,2,0.3
CC(C)[C@H](NC(=O)C1CCN(S(=O)(=O)c2ccc(F)cc2)CC1)C(=O)N1CCCCCC1,2,1,1.7,-4,1.6,1.9,0,0.0
COc1cc(C2C(C(=O)c3ccc(C)o3)=C(O)C(=O)N2Cc2ccccc2)ccc1O (stereo not given),1,-8,·,0,-2.1,8.0,-6,?
COc1cc(/C=N/NC(=O)c2cccnc2)ccc1OS(=O)(=O)c1cc(C)ccc1C,34,-13,1.4,0,2.9,·,8,0.3
O=C(CN1C(=O)c2ccccc2S1(=O)=O)NCc1cccs1,2,-5,-0.5,·,-3.8,-0.5,0,?
CCCNC(=O)CS(=O)(=O)Cc1nc(-c2ccccc2C)oc1C,0,-11,4.1,-5,-1.2,1.7,1,-0.3
CCCOC(=O)c1ccc(NC(=O)c2c(Cl)ccc(Cl)c2OC)cc1,4,34,-4.6,6,31*,1.9,-1,-0.5
CCOc1ccc(OCC)c(S(=O)(=O)NCc2ccccc2)c1,-4,0,-1.7,-2,1.5,2.1,-20,2.2
CC1Cc2cc(S(=O)(=O)NCCC(=O)NCc3ccc(F)cc3)ccc2N1C(=O)C1CC1 (stereo not given),-15,-4,-1.3,3,1.9,-0.8,-7,0.5
Cc1ccc(C)c(NC(=O)CSc2nnc3n2CCCCC3)c1,8,-11,3.8,-2,1.7,1.4,-19,-0.5
COc1cc(NC(=O)COc2cccc3c2OC(C)(C)C3)cc(OC)c1OC,-3,·,34*,56,·,4.0,·,-1.5
COc1ccc(CCNC(=O)Nc2ccc([N+](=O)[O-])cc2)cc1OC,-1,0,4.4,6,-4.5,8.9,-19,-0.1
COCCN(C(=O)COC(=O)c1sccc1C)c1c(N)n(Cc2ccccc2)c(=O)[nH]c1=O,-6,0,-0.7,-1,3.8,-0.3,-6,0.7
Cc1cc(C)nc(Nc2n[nH]c(-c3cccc4ccccc34)n2)n1,9,6,-4.0,10,-1.2,-0.7,3,-0.4
Cc1cccc(-n2nc(C)cc2N)c1,-1,13,6.8,-8,-2.2,2.6,-2,-0.1
Cc1nn(-c2ncc(C(F)(F)F)cc2Cl)c(=O)n1-c1ccccc1,-16,11,2.1,-4,-0.8,0.1,3,-1.4
O=C(NCCCN1CCOCC1)c1ccc2c(c1)N(Cc1ccccc1F)C(=O)c1ccccc1S2=O (stereo not given),-4,1,-2.4,-4,?,3.3,2,-0.4
COc1cc(C(=O)NNC(=O)c2cc(S(=O)(=O)N(C)C)ccc2N2CCCC2)cc(OC)c1OC,-7,·,4.3,0,·,1.4,·,1.1
O=c1[nH]c2c(c3c1CCCC3)CCCC2,-8,-7,10,-2,-0.5,0.3,?,-0.3
CCOC(=O)/C=C/CN(C(=O)OC(C)(C)C)S(=O)(=O)N1CC=CC1,2,-32,2.6,-5,-3.1,-2.1,-7,0.0
CCCOC(=S)NC(=O)c1sc2ccccc2c1Cl,-2,-10,1.3,-5,31*,-1.5,8,-1.7

# Profiles, quoted from the list. Order of screens: Beta2AR agonist	T cruzi repl	LANA-H2A inh	Beta cell apopt	RanGTP-Impb inh	UCH37 inh	Calb FLC	Bfl-1 A1 inh
# O=c1cc(O)c2sc3nc4c(c(C(F)(F)F)c3c2[nH]1)CCCCC4 as listed: 2	20	3.2	-4	9.6	-2.8	4	0.9
# CC(C)[C@H](NC(=O)C1CCN(S(=O)(=O)c2ccc(F)cc2)CC1)C(=O)N1CCCCCC1 as listed: 2	1	1.7	-4	1.6	1.9	0	0.0
# Cc1cccc(-n2nc(C)cc2N)c1 as listed: -1	13	6.8	-8	-2.2	2.6	-2	-0.1
# COCCN(C(=O)COC(=O)c1sccc1C)c1c(N)n(Cc2ccccc2)c(=O)[nH]c1=O as listed: -6	0	-0.7	-1	3.8	-0.3	-6	0.7
# O=C(NCCCN1CCOCC1)c1ccc2c(c1)N(Cc1ccccc1F)C(=O)c1ccccc1S2=O (stereo not given) as listed: -4	1	-2.4	-4	?	3.3	2	-0.4

# Additional compounds:
SMILES,Beta2AR agonist,T cruzi repl,LANA-H2A inh,Beta cell apopt,RanGTP-Impb inh,UCH37 inh,Calb FLC,Bfl-1 A1 inh
Cc1cccc(C)c1N1CC(=O)N(c2c(C)cccc2C)CC1=O,4,-4,3.9,-3,3.3,-1.8,-6,-0.3
CCOC(=O)N1CCN(c2cc(N3CCOCC3)c(F)cc2[N+](=O)[O-])CC1,-16,5,6.6,3,0.7,3.2,2,0.0
O=C(NCc1ccc2c(c1)OCO2)c1cccc(C(=O)NCc2ccc3c(c2)OCO3)c1,-13,-5,5.6,0,-0.4,2.2,-10,-0.4
C/C(CC(=O)NCc1ccco1)=N\NC(=O)Cc1ccc(-c2ccccc2)cc1,-2,-11,-14,-10,-0.4,·,-4,-0.3
CCc1cn([C@H]2C[C@H](O)[C@@H](CO)O2)c(=O)[nH]c1=O,-1,-8,0.7&-4.0,1,0.7,3.6,·,-0.6
O=[N+]([O-])c1ccc(N2CCN(Cc3ccc([N+](=O)[O-])o3)CC2)cc1,2,44,3.5,-1,-3.2,7.8,133*,0.8
COc1ccc(C2(C(=O)N3CCC(n4nc(-c5ccccc5)oc4=O)CC3)CC2)cc1,-5,12,-5.1,-2,4.7,7.1,14,0.1
COc1ccc(CC(=O)N2CCc3cc(OC)c(OC)cc3C2)cc1,-2,-4,-2.0,-4,0.7,1.2,-11,2.8
CC(=O)c1ccc(N=C2SCCCN2C(=O)C2CCCCC2)cc1,-5,-2,-5.0,-4,1.0,1.3,22,-0.9
CCOCCCNC(=O)C1CCN(Cc2ccc(OCc3ccccc3)c(OC)c2)CC1,2,16,4.2,-4,-1.3,6.4,-4,-0.2
C/C(=N\NC(=O)C(NC(=O)c1ccccc1)C(C)C)c1ccccc1 (stereo not given),-1,-6,2.6,0,0.0,·,-3,-0.6
O=C1NCCN(Cc2cccc(Oc3ccccc3)c2)C1CC(=O)N1CCCCO1 (stereo not given),2,-1,-0.9,-1,-2.2,-0.4,-1,0.1
COc1ccc(NC(=O)CCCN2C(=O)C(c3ccccc3)Oc3cccnc32)cc1OC (stereo not given),-3,-6,-1.9,-2,3.1,2.0,14,-0.3
Cc1ccc2c(c1)N(Cc1cccc(F)c1)C(=O)C(C)O2 (stereo not given),1,-2,1.6,-1,-3.2,4.8,-8,-0.3
CC(CC(=O)Nc1nncs1)c1ccccc1 (stereo not given),8,1,7.6,-7,-0.5,3.1,-7,0.5
Cc1noc(C)c1COC(=O)c1csc2c1CCC(C)C2 (stereo not given),-8,·,1.4,5,·,3.3,·,1.0
COc1ccccc1C1CCN(Cc2cccc(C(=O)N3CCC(O)CC3)c2)CC1,-7,-7,-1.9,3,2.0,0.3,-13,-4.3
COc1ccc(S(=O)(=O)N2CCCCC2)cc1NC(=O)CN1CCN(C(C)=O)CC1,0,7,1.5,-3,2.2,2.1,-3,-0.5
COC(=O)CN(C#N)c1nc(OC)nc(N(C)C)n1,6,-6,-1.3,3,-5.0,1.8,1,0.4
Oc1ccc(/C=N/NC(=S)Nc2cccnc2)c(O)c1,0,-1,-1.2,64,5.0,·,-25,-0.7
CN1CCN(CCC(=O)N/N=C/c2ccccn2)CC1,6,8,2.0,1,-5.5,·,-2,-0.3
CC(CC(=O)O)Nc1ccccc1O (stereo not given),-5,-18,-0.1,1,4.9,0.1,35,-0.2
COc1ccc(NC(=O)CC2Nc3ccccc3NC2=O)c([N+](=O)[O-])c1 (stereo not given),-1,2,1.6,6,9.4,-1.6,3,0.7
COc1cc(/C=C/C(=O)OCC(=O)Nc2cccc(F)c2)ccc1O,20,·,-1.7,3,·,-6.1,·,-0.1
COc1ccc(S(=O)(=O)NC(Cc2ccccc2)C(=O)O)cc1 (stereo not given),-12,-7,-2.7,-6,1.4,0.0,-3,0.6

# Structures listed so far marked active in LANA-H2A inh.
smiles | Beta2AR agonist | LANA-H2A inh | RanGTP-Impb inh | UCH37 inh | Bfl-1 A1 inh
COc1cc(NC(=O)COc2cccc3c2OC(C)(C)C3)cc(OC)c1OC | -3 | 34* | · | 4.0 | -1.5

# The list goes on:
SMILES,Beta2AR agonist,T cruzi repl,LANA-H2A inh,Beta cell apopt,RanGTP-Impb inh,UCH37 inh,Calb FLC,Bfl-1 A1 inh
CCOc1ccccc1Nc1nnc(SCC(=O)NC(=O)c2cccn2C)s1,-7,3,16*,-11,1.3,·,-5,-2.2
c1ccc(-c2ccccc2-c2nc(-c3cccnc3)no2)cc1,-8,14,4.2,-8,-1.6,1.4,0,-0.1
CC1Cc2ccccc2N1C(=O)COC(=O)c1ccc(O)cc1 (stereo not given),16,2,6.9,-3,-1.2,4.8,3,1.1
COc1ccc(NC(=S)N(CCCN2CCCC2)Cc2cccs2)cc1,-2,-31,2.7,-7,3.9,4.4,-6,-0.2
Cc1ccc(-n2ncc3c(=O)n(CC(=O)N4CCN(C(=O)c5ccco5)CC4)cnc32)cc1,-8,·,0.6,4,·,-0.6,·,-0.2
COc1ccc([C@H]2CC(=O)C=C(c3ccc(CO)cc3)C2)cc1,-2,·,4.5,-4,·,2.9,·,-1.0
COc1ccc(C(=O)C(C)N(C(=O)c2ccc(Cl)cc2Cl)N2C(=O)C3C4C=CC(C4)C3C2=O)cc1 (stereo not given),-5,12,0.5,-4,2.9,5.5,29,0.7
CN(CCC1CCOCC1)C(=O)C1CCC(=O)N(CCc2ccc(Cl)cc2)C1 (stereo not given),0,-2,0.5,-1,0.8,0.7,0,0.0
CN1C(C(=O)NCc2cccc(Br)c2)CC2Cn3c(nc4cc(Cl)c(Cl)cc43)C21 (stereo not given),-17,11,0.0,3,-5.1,-0.1,-10,0.1
COc1ccc(C(=O)N(Cc2ccccc2)c2cccc(C)c2)c(OC)c1OC,-3,-13,0.2,0,-0.9,1.0,10,0.5
Cc1cc(SCC(=O)c2cccc([N+](=O)[O-])c2)nc(=O)[nH]1,0,4,-5.6,·,-1.7,5.6,-2,-11

# Source: PubChem BioAssay (several laboratories)
